Beta apoptosis – beta cell apoptosis inhibition; protection from apoptosis, % (no concentration beside the values); INS-1E cytokine-induced death, ATP luminescence, 48 h; percent of positive-control rescue, neutral wells zero; actives 0.8% (n = 300,000);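 active = all replicates at 75% or more, or half of them and the mean; inconclusive = half reach 75% but not the mean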;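 note: 0% = cytokine-treated negative control wells and 100% = positive control rescue; higher means more ATP so stronger rescue from cytokine killing; wells of about 40 µL received 100 nL stock; the first replicate is given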
T cruzi repl – blocks replication of Trypanosoma cruzi; T. cruzi beta-gal in NIH3T3, luminescence, 90 h; inhibition, % (no concentration beside the values); actives 1.4% (n = 300,000);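 active = mean inhibition across valid replicates above about 55%, limit read from the data; inconclusive = mean below that limit but half or more replicates reach it; inactive = mean below it, under half of replicates reach it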;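 note: signal also drops with host cell toxicity which is not excluded here; 0% = plate median of DMSO wells and 100% = zero luminescence signal; higher percent means less beta-gal luminescence so fewer parasites; stock transfer was 50 nL into about 50 µL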
A1 inh – inhibitors of the anti-apoptotic protein A1, read as caspase activation; actives 0.066% (n = 330,000); caspase activation, % (concentration not given with the values); MEF A1-2A-BIM cells, Caspase-Glo 3/7 luminescence, 3 h; percent of clofoctol response, vehicle zero; AID 2462;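 active = over half of replicate activation scores above 10%, or exactly half above 10 with the replicate mean above 10; inconclusive = replicate mean below 10 yet half the replicates above 10; inactive = over half of replicates below 10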;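 note: wells of about 30 µL received 50 nL stock; many hits fall short of the cut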
ALR inh – inhibitors of human sulfhydryl oxidase ALR; P55789; purified ALR, DTT oxidation, H2O2 HRP-luminol luminescence; inhibition, % (test concentration not listed); actives 3.8% (n = 290,000); AID 485317;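 active = mean and each replicate at 75% or more; inconclusive = only one of the two met; inactive = neither met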;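 note: stock transfer was 7.5 nL into about 7.5 µL; 0% = neutral wells and 100% = wells with inactivated enzyme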
Target sequence (P55789 whole entry, looked up): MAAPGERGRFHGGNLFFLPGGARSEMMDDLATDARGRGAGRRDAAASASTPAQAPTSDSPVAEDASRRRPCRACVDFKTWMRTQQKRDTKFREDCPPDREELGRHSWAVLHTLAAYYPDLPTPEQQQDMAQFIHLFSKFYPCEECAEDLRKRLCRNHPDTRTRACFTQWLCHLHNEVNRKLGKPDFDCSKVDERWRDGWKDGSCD
Calb FLC – C. albicans growth modulation with fluconazole | C. albicans CaCi-2 (fluconazole-resistant clinical isolate) + fluconazole, Alamar Blue growth, 48 h | growth inhibition, % (concentration not given with the values) | actives 0.57% (n = 300,000);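 active = most replicates above 75%; inconclusive = exactly half above 75%; inactive = most below 75%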;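 note: all wells also contain fluconazole at 8 µg/ml as a sub-toxic cotreatment; 0% = median of DMSO wells and 100% = median of geldanamycin control wells; wells of about 8 µL received 7.5 nL stock; the first replicate is given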
Ecoli rRNA inh – inhibits bacterial ribosomal RNA function over humanized ribosomes; E. coli WT GFP vs humanized-ribosome RFP mutants, fluorescence, 24 h; stronger effect = lower value; DMSO median 0, no signal -100; GFP signal change (wild-type ribosome), % (concentration not given with the values); actives 1.6% (n = 350,000); AID 720706;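 active = significant combined selectivity score with lowered wild-type GFP, culture density cut under 30%, mutant RFP and density less affected; inactive = any of these conditions unmet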; note: one replicate is shown; some compounds called inactive have numbers as strong as hits
Beta2AR agonist – human beta-2 adrenergic receptor agonism by FAP; P07550; Am2.2-beta2AR cells, FAP receptor internalization, flow cytometry; reference of the scale not given here; response, % (test concentration not listed); actives 0.43% (n = 340,000); AID 504454;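 active = response above a set limit, near 3 SD of response in nonfluorescent compounds, cut at about 42% in these data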;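 note: stock transfer was 100 nL into about 11 µL; a reference agonist was the positive control; negative values mostly stem from fluorescent compounds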
Target sequence (P07550 whole entry, looked up): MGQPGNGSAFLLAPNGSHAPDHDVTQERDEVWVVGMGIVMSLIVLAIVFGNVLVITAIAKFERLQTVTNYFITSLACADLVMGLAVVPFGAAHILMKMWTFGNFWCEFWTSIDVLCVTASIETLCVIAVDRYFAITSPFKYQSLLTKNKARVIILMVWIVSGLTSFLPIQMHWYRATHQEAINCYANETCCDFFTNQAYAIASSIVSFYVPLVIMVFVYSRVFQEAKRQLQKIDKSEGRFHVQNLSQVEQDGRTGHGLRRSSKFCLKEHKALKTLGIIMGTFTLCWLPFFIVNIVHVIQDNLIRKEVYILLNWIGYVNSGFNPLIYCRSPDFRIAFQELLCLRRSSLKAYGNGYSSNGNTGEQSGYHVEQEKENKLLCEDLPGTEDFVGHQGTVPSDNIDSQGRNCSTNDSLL
LANA-H2B inh – blocks KSHV LANA binding to histone H2A/H2B; inhibition, % (no concentration beside the values); Q9QR71; actives 0.6% (n = 320,000); cell-free LANA-H2A/H2B peptide, fluorescence polarization; in the data active = inhibition mostly above about 10%, no sharp cut-off; inactive = mostly below about 6.7%;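 note: stock transfer was 7.5 nL into about 10 µL; 0% = median of vehicle wells and 100% = median of positive control wells; one replicate is shown; the record names a cut of 25% in any replicate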
Ecoli rRNA inh OD600 – also measured in Ecoli rRNA inh; calls as there; OD600 change, %; measured here: OD600 growth;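 optical density of the mix in the first replicate; 0 = DMSO median and -100 = no signal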
Ecoli rRNA inh RFP – second read-out of Ecoli rRNA inh, no call of its own (marks repeat the call); RFP signal change, %; measured here: RFP humanized mutant strains;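 first replicate; 0 = DMSO median and -100 = no signal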
The depositor's hits bear a star; ? = inconclusive; / = no result given. This is a subset; rates above refer to the full screens.

SMILES | Beta apoptosis | T cruzi repl | A1 inh | ALR inh | Calb FLC | Ecoli rRNA inh | Ecoli rRNA inh OD600 | Ecoli rRNA inh RFP | Beta2AR agonist | LANA-H2B inh
Cc1cccc(NC(=O)C2CCN(S(C)(=O)=O)CC2)c1C | 3 | -5 | 0.6 | -5 | -4 | 8 | 17 | -4.1 | 0 | 1.9
O=C(NCCC1=CCCCC1)C1CCN(c2nc3ccccc3o2)CC1 | -1 | 37 | -0.2 | -3 | -21 | / | / | / | -11 | -1.3
CCOC(=O)CN1C=C(c2ccc3ccccc3n2)C(C[N+](=O)[O-])c2ccccc21 (centres undefined) | 34 | / | 0.3 | -5 | -14 | / | / | / | -143 | -117
O=C(NCCc1ccc(Cl)cc1)c1ccc(=O)[nH]c1 | -8 | -5 | -0.7 | -3 | -1 | 1 | 3 | 0.8 | -1 | -2.0
COc1cccc(-c2nnc3sc(-c4ccccn4)nn23)c1 | 3 | -2 | 0.7 | 0 | -9 | / | / | / | 10 | 2.8
CCCc1cc(C(N)=O)c(NC(=O)c2ccoc2C)s1 | -4 | -4 | 0.4 | 98* | 17 | -4 | 1 | 2.8 | -3 | 6.0
O=C(NC(=S)Nc1ccc(S(=O)(=O)Nc2ncccn2)cc1)c1ccc(Br)cc1 | 1 | -20 | -0.3 | 5 | -10 | 7 | 3 | 1.9 | 3 | 6.8
CC(=O)N1CCc2c(sc(NC(=O)C3CCN(S(=O)(=O)c4cccs4)CC3)c2C(N)=O)C1 | 8 | 5 | 0.4 | -24 | -2 | -7 | -10 | 2.0 | 10 | -7.4
O=S1c2ccccc2Nc2ccccc21 | 1 | -10 | -0.1 | 87* | 2 | 4 | 1 | -5.0 | -5 | -0.4
O=C1N[C@@H](Cc2ccccc2)COC(=O)[C@@H](Cc2ccc(F)cc2)C/C=C\C[C@@H]1CC(=O)N(CCO)Cc1ccccc1 | 8 | / | -0.2 | 2 | / | 2 | 1 | -6.0 | 9 | -1.0
COc1cc(NC(=O)NCCN2CCN(c3ccc(Cl)cc3)CC2)ccc1C | 4 | -3 | 1.4 | 71 | ? | / | / | / | -2 | -1.6
COc1cc(-c2cc(N)n(S(=O)(=O)c3ccc(F)cc3)n2)cc(OC)c1OC | -7 | 3 | 0.2 | / | 1 | 6 | 18 | 15 | -5 | -3.2
CCCCn1c(NCCO)nc2ccccc21 | 2 | -2 | 0.9 | 98* | 1 | 2 | 4 | -2.0 | 15 | -1.4
C=CCn1nnnc1-c1cc(Cl)cc(Cl)c1 | -1 | -18 | -0.7 | -13 | -7 | -1 | -7 | 1.6 | 1 | -5.3
Cn1c(SCCCC(=O)c2ccccc2)nnc1-c1ccncc1 | 1 | -10 | 1.0 | -12 | -2 | / | / | / | 3 | 5.5
NC(=O)CC(NC(=O)Cc1ccc(Cl)cc1)c1ccc(NC2CCCC2)c([N+](=O)[O-])c1 (centres undefined) | 12 | -6 | -0.1 | -3 | -15 | 16 | 15 | -1.0 | -1 | -1.1
CCN1CCN(C(=O)CCCCCn2c(=O)[nH]c3cc(C(=O)OC)ccc3c2=O)CC1 | -2 | 4 | 0.4 | 0 | -21 | / | / | / | 1 | -0.1
COc1ccc(S(=O)(=O)N2CCOCC2)cc1Cl | -14 | -4 | 1.4 | -7 | 2 | / | / | / | -6 | 1.5
CC1=NN(c2ccccc2)C(=O)/C1=C\c1ccc(Oc2ccc([N+](=O)[O-])cc2[N+](=O)[O-])cc1 | 3 | 3 | -0.4 | -16 | -39 | 1 | 8 | -2.0 | 19 | 22*
COc1cc(NC(=O)CSc2ncnc3sc4c(c23)CCCC4)c(C(=O)O)cc1OC | -7 | -10 | -0.2 | 88* | 0 | -10 | -13 | -1.6 | -6 | -5.1

Just ALR inh (2 entries from above):
| canonical_smiles | ALR inh |
| --- | --- |
| CCN1CCN(C(=O)CCCCCn2c(=O)[nH]c3cc(C(=O)OC)ccc3c2=O)CC1 | 0 |
| COc1ccc(S(=O)(=O)N2CCOCC2)cc1Cl | -7 |

Other structures:
SMILES | Beta apoptosis | T cruzi repl | A1 inh | ALR inh | Calb FLC | Ecoli rRNA inh | Ecoli rRNA inh OD600 | Ecoli rRNA inh RFP | Beta2AR agonist | LANA-H2B inh
CCc1nnc(NC(=O)CCC(=O)N2CCN(C3CCCCC3)CC2)s1 | 0 | 18 | -0.1 | 5 | -1 | 18 | 9 | -8.4 | -2 | 4.2
CN(Cc1cnn(C)c1)C(=O)C1CCCCC1C(=O)O (centres undefined) | 2 | / | 1.0 | -4 | / | / | / | / | -5 | 8.7
Cc1ccc(C(=O)c2oc3ccccc3c2N)cc1 | -4 | -14 | 0.0 | -1 | -6 | / | / | / | 10 | -2.4
COc1ccc(N2CCN(C(=O)c3ccc(COc4ccc([N+](=O)[O-])cc4)o3)CC2)cc1 | / | 19 | / | / | -21 | -15 | -12 | 14 | -3 | /
COc1cc(/C=C/c2cc[n+](C)cc2)ccc1OCC(=O)Nc1ccccc1 | -5 | -7 | 1.3 | -14 | -15 | 7 | 4 | -1.1 | 2 | -11
O=C1Oc2ccccc2C(=O)/C1=C/c1ccccc1O | 5 | -34 | 0.7 | 14 | 3 | -24* | -16* | -3.7* | 5 | -3.0
CC1(C2CC2)NC(=O)N(CC(=O)N2CCN(c3ccccc3)CC2)C1=O (centres undefined) | -2 | / | -1.4 | 19 | / | 0 | 8 | -2.3 | -12 | -2.9
COC(=O)CCC(NC(=O)c1cc(C)oc1C)C(=O)OC (centres undefined) | -1 | -1 | 0.2 | 8 | -1 | / | / | / | -4 | 1.6
Cc1c(NC(=O)Nc2cccc(Cl)c2)c(=O)n(-c2ccccc2)n1C | -16 | 0 | -0.1 | -3 | -19 | / | / | / | -2 | -3.1
CN(C)CCN(C(=O)C1CCN(S(=O)(=O)c2cccs2)CC1)c1nc2c(F)cccc2s1 | -3 | 53 | 0.4 | / | -4 | 11 | 9 | -0.2 | 6 | 3.2
C/C(N)=C(/C#N)C(=O)COC(=O)c1cccc(C)c1O | 0 | -18 | -0.4 | -3 | 3 | 7 | 0 | -8.9 | -2 | -3.2
COc1ccc(CC(=O)N(CC2CCCO2)c2nc3ccccc3s2)cc1 (centres undefined) | 2 | 18 | 0.3 | -15 | 5 | 4 | 8 | -0.4 | -8 | 2.7
CCOC(=O)c1sc(NC(=O)c2ccc(C)o2)nc1C | 22 | -4 | -6.8 | -3 | -4 | / | / | / | -13 | 3.5
CCC(CO)Oc1cc(NCc2ccccc2C)c2ncn(C(C)C)c2c1 (centres undefined) | 0 | / | 1.1 | 41 | / | 1 | -1 | 2.4 | 12 | -2.2
CCN(CC)S(=O)(=O)c1ccc(/C=C/C(=O)OCC(=O)Nc2cccc3ccccc23)cc1 | -1 | -14 | 0.0 | -8 | -4 | 5 | 1 | 2.0 | 18 | -1.2
CCN1C(=O)[C@@H]2[C@H](C1=O)[C@@H]1C(=O)Nc3ccccc3C(=O)N1[C@@H]2c1cccc(OC)c1 | -2 | -24 | -0.3 | 1 | -4 | 9 | 24 | 12 | -4 | 0.3
Cc1cc(/C=C2/C(=O)NN(c3ccccc3)C2=O)c(C)n1-c1cccc(O)c1 | -5 | -26 | -4.8 | 22 | -49 | -26 | -25 | -3.6 | -13 | -1.3
Cc1c(NC(=O)CCSCCc2ccccn2)cccc1[N+](=O)[O-] | -7 | -3 | -0.4 | -8 | -8 | 7 | 3 | -0.5 | 2 | -2.6
N#Cc1ccccc1COC(=O)CCCC1=NS(=O)(=O)c2ccccc2N1 | -1 | -2 | 0.1 | -5 | -5 | -4 | -6 | 0.4 | 2 | 0.0
CCNC(=O)CCc1nc(-c2ccc(C(C)(C)C)cc2)no1 | -1 | -5 | -1.7 | 30 | -2 | / | / | / | 0 | -3.2
CCCCCCNC(=O)CSc1nccn1Cc1ccccc1 | -13 | 6 | 0.1 | 0 | -9 | -8 | -9 | -8.0 | -16 | 4.4
COc1cccc(CNC(=O)CCC2CCCN(Cc3cc(Cl)ccc3O)C2)c1 (centres undefined) | -8 | 19 | -0.1 | 48 | -5 | -3 | -2 | -1.3 | -1 | 1.1
Brc1ccccc1-c1nnc(CSc2nnnn2-c2ccccc2)o1 | 1 | 13 | 0.0 | 0 | 17 | -24 | -22 | -8.2 | -7 | -6.6
Cc1noc(C)c1COc1ccccc1C(=O)Nc1cccc(S(=O)(=O)N(C)C)c1 | 1 | -3 | 0.4 | -3 | -2 | -8 | -3 | 4.7 | -12 | -1.2
CCOC(=O)N1CCC(NC(=O)c2cc(C(=O)Nc3cccc(OC)c3)ccc2CO)CC1 | 4 | 2 | -0.8 | 17 | 2 | / | / | / | 0 | -3.1
CC1(C)Cc2c(cnn2-c2ccc(F)cc2)C(NC(=O)CCC(F)(F)F)C1 (centres undefined) | / | -2 | -0.7 | 2 | -3 | 4 | 3 | -0.7 | -9 | -6.2
C[C@H]1CN=C(N(C)C)N1CCCC1CCCC1 | -5 | / | -0.8 | / | / | 9 | 16 | 5.6 | 1 | -5.5
CN(C(=O)CCNC(=O)Cn1ccc2ccccc2c1=O)c1ccc(Br)cc1 | -3 | 8 | -0.2 | -22 | -8 | 2 | -4 | -1.7 | -5 | 5.4
CCOC(=O)c1c(C)[nH]c(C(C)=NNC(=O)c2cccs2)c1C | 1 | / | -0.3 | -1 | / | -10 | -6 | -3.8 | -3 | 0.8
Cc1ccc(NC(=O)CCNS(=O)(=O)c2ccc3c(c2)oc(=O)n3C)cc1 | 8 | -9 | 0.2 | -3 | 30 | / | / | / | 9 | -0.9
Cc1ccc(NC(=O)c2onc(C)c2Cl)cc1 | 2 | -1 | -2.1 | -13 | -7 | 4 | 1 | -4.2 | -1 | -1.2
CCN(CC)C(=S)Nc1ccc([N+](=O)[O-])cc1 | -2 | -12 | 0.6 | -3 | -23 | / | / | / | 7 | 2.5
O=C(CSc1nc2cc(Cl)ccc2s1)c1cc2ccccc2o1 | 2 | / | -1.9 | 20 | 26 | -10 | 4 | 8.4 | 3 | 1.4
Cc1ccc(C(=O)N2CCOCC2)cc1S(=O)(=O)N1CCOCC1 | / | -3 | 0.3 | 8 | 1 | 3 | 8 | 0.5 | -3 | -5.0
Cc1ccccc1OS(=O)(=O)c1cn(C)c(=O)n(C)c1=O | -7 | -19 | 0.6 | -4 | ? | 10 | 11 | -5.7 | -2 | 0.4
Cc1cc(C)nc(NC(=O)CSc2nn(C)c(=S)s2)n1 | 0 | -6 | 1.9 | 1 | -1 | / | / | / | -3 | -3.9
O=C(NNC(=O)C(O)c1ccccc1)NC1CCCCC1 (centres undefined) | -3 | -10 | -0.4 | 4 | -1 | 9 | 12 | -6.1 | 5 | 0.6
CC(=O)Nc1ccc(N/C=C/C(=O)C(C)(C)C)cc1 | -2 | 8 | -0.4 | -1 | 14 | / | / | / | -1 | -1.3
COC(=O)c1ccccc1NC(=O)COc1ccc(S(=O)(=O)NC(C)C)cc1 | -2 | 3 | -0.1 | -9 | -7 | 9 | 12 | -1.2 | 6 | 3.0
